KCNQ2 pot – potentiators of rat KCNQ2 potassium channel; Potassium voltage-gated channel subfamily KQT member 2 (Rattus norvegicus), O88943; CHO-K1 KCNQ2, FluxOR thallium flux fluorescence; hits give high values; B-score at 10 µM; hit rate 0.54% among 310,000; AID 2239, 2010;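 active = fluorescence ratio B-score at least 3 SD of library B-scores, with initial fluorescence B-score within 3 SD, cut at about 5.3 in these data; same plate scores as AID 2156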;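 also: B-score of peak minus minimum over baseline fluorescence ratio after K+ and Tl+ stimulus; positive B-score means potentiation of KCNQ2 with more thallium influx and brighter signal; only the inactives scoring about 0 or higher are listed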
Target sequence (O88943 whole entry, looked up): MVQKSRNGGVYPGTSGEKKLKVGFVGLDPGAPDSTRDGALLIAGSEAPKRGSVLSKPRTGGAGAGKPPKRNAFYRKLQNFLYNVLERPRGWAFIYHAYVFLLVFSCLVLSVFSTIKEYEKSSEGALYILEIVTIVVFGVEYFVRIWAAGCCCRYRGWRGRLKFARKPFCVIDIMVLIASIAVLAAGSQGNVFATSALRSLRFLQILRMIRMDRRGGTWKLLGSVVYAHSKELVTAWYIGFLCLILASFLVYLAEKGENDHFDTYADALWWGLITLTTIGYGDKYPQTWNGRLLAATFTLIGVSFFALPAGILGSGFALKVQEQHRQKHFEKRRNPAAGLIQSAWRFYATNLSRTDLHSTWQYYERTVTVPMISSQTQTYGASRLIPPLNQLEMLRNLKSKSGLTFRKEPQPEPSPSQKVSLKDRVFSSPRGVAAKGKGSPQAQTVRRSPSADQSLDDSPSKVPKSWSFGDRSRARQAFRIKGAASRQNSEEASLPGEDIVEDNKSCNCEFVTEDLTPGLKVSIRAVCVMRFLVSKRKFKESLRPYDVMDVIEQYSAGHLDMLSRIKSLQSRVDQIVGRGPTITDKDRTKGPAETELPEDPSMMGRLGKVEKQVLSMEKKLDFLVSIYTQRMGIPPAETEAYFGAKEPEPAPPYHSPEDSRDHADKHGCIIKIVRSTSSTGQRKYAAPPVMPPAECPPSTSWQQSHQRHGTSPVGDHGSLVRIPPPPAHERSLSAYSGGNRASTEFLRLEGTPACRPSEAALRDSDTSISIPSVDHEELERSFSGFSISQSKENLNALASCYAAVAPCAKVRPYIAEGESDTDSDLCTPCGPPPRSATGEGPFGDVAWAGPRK
KCNQ2 pot baseline – second read-out of KCNQ2 pot, no call of its own (marks repeat the call); B-score; compound at 10 µM; measured here: initial fluorescence intensity artifact check;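 brightness before thallium and not channel activity; 0 = typical well and far values either way flag optical interference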
* marks the source's active call; other numbers are inactive results. This is a subset; rates above refer to the full screens.

item | SMILES | KCNQ2 pot | KCNQ2 pot baseline
1 | COCC(C)n1c(C)cc(C(=O)COC(=O)CCc2nc3ccccc3c(=O)[nH]2)c1C (stereo not given) | 1.56 | -0.81
2 | CC(=O)c1ccc(-n2nnnc2SCC(=O)NC2CCCCC2)cc1 | 0.23 | -1.48
3 | O=C(NC1CCCCCC1)c1cc(S(=O)(=O)N2CCC3(CC2)OCCO3)ccc1F | 0.64 | 0.28
4 | c1cc2c(cn1)cnc1cscc12 | 0.53 | 0.91
5 | Cc1ccc(OCC(=O)N2CCN(C(=O)c3ccncc3)CC2)cc1 | 1.82 | -1.79
6 | COc1ccc2[nH]c3nc(SCC(=O)NC4CC4)nnc3c2c1 | 1.08 | -1.01
7 | O=C(Nc1ccc(OC(=O)c2cccnc2)cc1)c1cccnc1 | 1.96 | -3.27
8 | COc1ccccc1/C=C1/C(=O)N(c2cc(C)cc(C)c2)C(c2cccc([N+](=O)[O-])c2)S1(=O)=O (stereo not given) | 0.06 | 0.21
9 | COc1ccccc1-n1cccc1C=O | 1.14 | 1.3
10 | O=C(CCNC(=O)C1CCN(S(=O)(=O)c2ccccc2)CC1)NCCc1cccc(F)c1 | 0.06 | 0.01
11 | Cc1ccc(NC(=O)CCCC(=O)OC(C)C(=O)c2ccccc2)cc1 (stereo not given) | 0.64 | 1.21
12 | COc1ccccc1Nc1nc(NCCO)nc(N)c1[N+](=O)[O-] | 0.97 | 0.39
13 | Cc1cccc(NC(=O)CCNS(=O)(=O)c2ccc3[nH]c(=O)oc3c2)c1 | 0.48 | -0.98
14 | Cc1c(Nc2c3ccccc3nc3ccccc23)c(=O)n(-c2ccccc2)n1C | 0.13 | -0.05
15 | CCCC(=O)NC(=S)Nc1cccc(NC(=O)c2ccccc2)c1 | 0.42 | -1.17
16 | Cc1ccc(Cl)cc1NC(=O)COC(=O)Cn1cnc2c1c(=O)n(C)c(=O)n2C | 0.72 | 0.01
17 | COc1ccc(CC(=O)NCCC2=CCCCC2)cc1 | 2.42 | -1.59
18 | COc1ccc(CCN(C)C(=O)N2CCOCC2)cc1OC | 1.56 | 1.92
19 | Cc1ccsc1-c1nc(CN2C[C@@H](C)O[C@@H](C)C2)c(C)o1 | 0.67 | -1.08
20 | CCOc1ccc(C(=O)CSc2nnc(N)s2)cc1 | 0.33 | -0.02
21 | Cc1oc(C(C)(C)C)cc1C(=O)Nc1ccc2c(c1)OCCO2 | 0.67 | -0.26
22 | Cc1ccc(CCCOC(=O)C[N+]2(C)CCCC2)cc1 | 0.81 | -0.01
23 | O=C(CSc1cc(Cl)ccc1Cl)NC1CCCC1 | 0.74 | -2.55
24 | CCC1=C(OC(=O)N(CC)CC)N2C(=O)OC(=NCCOC)[C@]2(Cc2ccccc2)[C@H]2C1=CC[C@H]1C(=O)N(CC(=O)OC)C(=O)[C@H]12 | 0.06 | 0.18
25 | CC(C)c1nc(CNC(=O)c2ccc(OC3CCN(Cc4ccccn4)CC3)cc2)cs1 | 0.08 | 0.07
26 | CC(C)C(=O)Nc1nc(-c2ccc(S(=O)(=O)N3CCOCC3)cc2)cs1 | 0.78 | -2.44
27 | COC(=O)c1ccc(COC(=O)c2ccc(S(=O)(=O)N3CCC(C)CC3)cc2)o1 | 1.19 | -0.96
28 | O=C(NC(=S)Nn1cnnc1)c1cccc(Br)c1 | 2.4 | 3.79
29 | COc1cc2c(cc1OC)CN(CC(=O)Nc1ccc(C)cc1)CC2 | 0.38 | -2.11
30 | CC(C)CNS(=O)(=O)c1cc(C(=O)N2CC(C)OC(C)C2)c(Cl)cc1Cl (stereo not given) | 0.19 | -1.1
31 | CC1C(=O)Nc2ccccc2N1C(=O)c1ccc(F)cc1F (stereo not given) | 0.26 | 0.1
32 | CCOC(=O)CNC(=O)CSc1nc2sc(C)c(C)c2c(=O)n1C | 2.4 | 0.91
33 | CCn1cc(C(=O)NCC2COc3ccccc3O2)c2cc(OC)c(OC)cc2c1=O (stereo not given) | 0.38 | -1.3
34 | Cc1cc(C)c2nc(SCC(=O)Nc3ccc(S(=O)(=O)N4CCCC4)cc3)c(C)cc2c1 | 1.59 | 0.03
35 | CC(=O)NCCN1C(=O)C2C3c4ccccc4C(c4ccccc43)C2C1=O (stereo not given) | 0.66 | 0.35
36 | CCOC(=O)C1CCCN(Cc2cc(=O)oc3cc(C)ccc23)C1 (stereo not given) | 0.1 | 1.89
37 | O=C(C1CCC(=O)N(C2CCCC2)C1)N1CCN(c2ccccc2Cl)CC1 (stereo not given) | 0.2 | 1.72
38 | Cc1cccc(C(=O)Nc2cc(=O)n(C)c(=O)n2C)c1 | 1.03 | -0.7
39 | Cc1cc(C(=O)Nc2cc(C(C)(C)C)on2)c(C)o1 | 0.93 | -0.48
40 | NC(=O)c1nsc(C(=O)N(Cc2ccccc2F)C(C(=O)NCC2CCCO2)c2ccc(F)cc2)c1N (stereo not given) | 2.61 | 0.08
41 | COc1ccc(OCC(=O)Nc2ccc3c(c2)n(C)c(=O)n3C)cc1 | 0.29 | -0.69
42 | CCOC(=O)c1ccc(-c2c(C(=O)OCC)oc3cc(O)c(CC)cc3c2=O)o1 | 0.1 | 0.35
43 | CCOC(=O)c1[nH]c2cc(OC)c(OC)cc2c1NC(=O)c1ccc2c(c1)OCO2 | 0.96 | 0.77
44 | O=C(/C=C/c1ccco1)Nc1sc2c(c1C(=O)O)CCC2 | 2.23 | 0.39
45 | CN1CCCN(C(=O)/C=C/c2ccc(Cl)cc2Cl)CC1 | 2.27 | -0.74
46 | COc1ccccc1Nc1nc(N)nc(CSc2nnc(C)s2)n1 | 1.27 | -0.16
47 | Cc1sc(C(C2C(=O)CC(C)(C)CC2=O)C2C(=O)CC(C)(C)CC2=O)cc1[N+](=O)[O-] | 0.5 | -0.58
48 | COc1cc2ccccc2cc1-c1nnc(COc2ccccc2)o1 | 0.18 | 0
49 | COc1ccc(NC(=O)Cc2nnc(SCC(=O)Nc3nccs3)n2C)cc1 | 0.72 | -0.07
50 | Cc1ccccc1CN1CCN(S(=O)(=O)c2cccs2)CC1 | 0.76 | -0.4
51 | COc1ccc(NS(=O)(=O)c2cccc(C(=O)OCC(=O)N3CCN(c4ccc(OC)cc4)CC3)c2)cc1 | 0.98 | -0.61
52 | O=[N+]([O-])c1ccc(OS(=O)(=O)Cc2ccccc2)cc1 | 0.39 | 0.67
53 | CCc1nnc(NC(=O)c2ccc(NS(=O)(=O)c3ccccc3)cc2)s1 | 0.23 | -0.98
54 | CCOc1ccccc1NC(=O)NC(C)c1ccc2c(c1)OCO2 (stereo not given) | 5.83* | -0.11*
55 | CCN(CC)c1ccc(C(=O)NNC(=O)CN2C(=O)NC3(CCCCC3)C2=O)cc1 | 1.15 | -0.46
56 | COc1cccc(OC)c1C(=O)NC(=S)NCc1ccccc1 | 0.03 | -0.31
57 | C/C(=N\O)C(C)(C)Nc1cccc(F)c1 | 0.18 | 1.08
58 | COc1cccc(CNC(=O)CN(C)S(=O)(=O)c2ccc3c(c2)n(C)c(=O)c(=O)n3C)c1 | 0.14 | -0.89
59 | COc1cc(/C=C/C(=O)NC(C)(C)C)ccc1OCc1ccccc1 | 0.24 | 0.12
60 | Cc1cccc(NC(=S)N2CCN(c3cc(C)ccc3C)CC2)c1 | 0.51 | 0.58

Further entries
item | SMILES | KCNQ2 pot | KCNQ2 pot baseline
61 | CCOc1ccccc1C1c2[nH]c3ccccc3c2C[C@H]2C(=O)N(C3CC3)CC(=O)N12 (stereo not given in full) | 1.71 | -0.01
62 | COc1cc(OC)cc(C(=O)NCCc2cnc[nH]2)c1 | 0.94 | 1.32
63 | Fc1cccc(CSc2ccc3nnc(-c4ccccn4)n3n2)c1 | 1.22 | -0.27
64 | O=C(Nc1ccc(Br)cn1)c1ccc([N+](=O)[O-])o1 | 0.78 | -0.48
65 | COc1cc(C(=O)N2CCN(C(=O)Cc3ccccc3)CC2)cc(OC)c1OC | 0.25 | 1.69
66 | CCOC(=O)C1=C(C)N(c2ccc(C)cc2)C(=O)/C1=C\c1ccc(O)c(OC)c1 | 0.67 | 0
67 | O=C(COc1ccccc1)N=C1SC2CS(=O)(=O)CC2N1c1ccc(F)cc1F (stereo not given) | 2.09 | -1.01
68 | CCCCC(CC)CNC(=O)c1[nH]c(C)c(C(C)=O)c1C (stereo not given) | 0.89 | -1.39
69 | CC(=O)Nc1sc2c(c1C(c1cccc(Cl)c1)N1CCN(CCO)CC1)CCCC2 (stereo not given) | 1.23 | -0.09
70 | Cc1ccccc1C(=O)c1cccn1CC(=O)NCCCN1CCc2ccccc2C1 | 0.76 | -0.37
71 | Cn1c(NC(=O)C[n+]2cc(-c3ccc(Cl)c(Cl)c3)n3c2CCC3)cc(=O)n(C)c1=O | 1.34 | 0.14
72 | Cc1ccc(NC(=O)C2CC(=O)N(Cc3ccco3)C2)cc1 (stereo not given) | 1.34 | 0.78
73 | CC1(C)OC(=O)C(=CNCC(O)c2ccccc2)C(=O)O1 (stereo not given) | 0.04 | -0.32
74 | CCC(=O)N1CCc2cc(Br)cc(S(=O)(=O)N(C)c3ccc(OC)cc3)c21 | 0.64 | -0.03
75 | CC(=O)Oc1c(Br)cc(N(C(C)=O)S(=O)(=O)c2ccccc2)c2ccccc12 | 1.23 | 0.09
76 | COC(=O)COc1cc(OCC(=O)OC)c2c(-c3ccccc3)cc(=O)oc2c1 | 0.05 | 0.04
77 | Cc1csc(NC(=O)Cc2c[nH]c3ccccc23)n1 | 0.34 | -0.66
78 | CC(C)(C)C(=O)Nc1ccccc1N1CCN(c2ccc(F)cc2)CC1 | 1.51 | 1.33
79 | COc1ccc(CNC(=O)c2ccc(C(C)(C)C)cc2)cc1 | 0.04 | 0.09
80 | COC(=O)c1cccc(C(=O)N2CCC(CO)(Cc3ccccc3Cl)CC2)c1 | 1.05 | -0.51
81 | C/C(=N\Nc1ccc(Cl)cc1)c1c(O)cc(C)oc1=O | 0.44 | -2.58
82 | O=[N+]([O-])C1=CC=C2C(=NC3(CCCCC3)N2O)C1=NCCc1ccccc1 | 1.43 | -1.6
83 | COC(=O)c1ccc(CO/N=C(\NC(C)=O)c2nonc2NC(C)=O)cc1 | 1.73 | -0.66
84 | CC1CC(C)(C)NC(=S)N1CCC(=O)Nc1ccc2c(c1)OCCO2 (stereo not given) | 1.32 | -1.26
85 | CCC[C@@H]1CCCO[C@@](C(=O)NCc2cc(C)n(C)n2)(C(F)(F)F)C1 | 0.39 | -0.82
86 | CC(C)=CCN1CCN(Cc2cccc3nccnc23)CC1CCO (stereo not given) | 0.72 | 0.12
87 | COc1cccc(N2CCN(c3c4c(nc5ncnn35)CCC4)CC2)c1 | 2.78 | 0.14
88 | COc1ccc(/C=N/NC(=O)CN2CCCCCCC2)c(C)c1C | 0.84 | 0.73
89 | O=C(NCCc1ccccc1)C(c1ccccc1F)N(C(=O)c1csnn1)C1CC1 (stereo not given) | 0.31 | 0.38
90 | C#CCN(Cc1ccco1)C(=O)c1cc(COc2ccc(F)cc2Cl)on1 | 2.14 | -0.01
91 | O=C(N/N=C/c1ccc2nccnc2c1)c1ccncc1 | 1.26 | -0.02
92 | COC(=O)C(C(=O)OC)N1C(=O)CCC1=O | 0.23 | 2.17
93 | O=C(O)c1ccc(N2CCS(=O)(=O)CC2)cc1 | 0.33 | -1.06
94 | O=C(NCCCNc1ccnc2cc(Cl)ccc12)c1ccccc1F | 0.52 | 0.04
95 | C(=C\c1ccccc1)/CN1CCN(Cc2ccc3c(c2)OCCO3)CC1 | 0.98 | 0.96
96 | CN(C)CCCNC(=S)NCCNc1nc2cc3c(cc2cc1C#N)OCO3 | 0.87 | -0.06
97 | Cc1oc(C)c(C(N)=O)c1C(N)=O | 0.86 | -0.13
98 | COC(C/C=C\[C@@H](O)[C@@H](C)OCc1ccccc1)OC | 0.29 | -0.34
99 | Cc1cccc(N/C=C/c2onc(C)c2[N+](=O)[O-])c1 | 0.05 | 1.18
100 | Cc1ccn2c(=O)nc(SCC(=O)N3CCCCC3)nc2c1 | 0.08 | 0.48
101 | CCc1nnc(NCn2nc(C)cc2C)s1 | 1.58 | -1.06
102 | O=C(CN1C(=O)COc2ccc(Cl)cc21)Nc1ccc2c(c1)OCCO2 | 0.14 | -0.42
103 | COc1cccc(C(=O)O/N=C2\CCS(=O)(=O)c3sccc32)c1 | 0.61 | -0.72
104 | CCCCOc1ccccc1NC(=O)CC1Nc2ccccc2NC1=O (stereo not given) | 1.22 | -1.15
105 | Cc1cc(NC(=O)Cn2nc(C(F)(F)F)c3c2CCC3)n(-c2ccccc2)n1 | 2 | -0.28
106 | COc1ccc2[nH]c(=O)c(CN(c3ccccc3OC)S(=O)(=O)c3ccccc3)cc2c1 | 1.76 | -0.95
107 | CCOC(=O)N1CCN(C(=O)Cn2ncn3nc(-c4cccs4)cc3c2=O)CC1 | 2.17 | -1.35
108 | Nc1nnnn1/N=C/c1cccc(OCc2ccccc2Cl)c1 | 2.31 | -2.64
109 | O=C(c1ccc(Cl)cc1)N1CCN=C1c1ccccc1 | 1.5 | 1.72
110 | Cc1ccc(S(=O)(=O)NC(C)C(=O)NC(C)c2cccs2)cc1 (stereo not given) | 1.56 | 0.33
111 | O=C(O)CSc1nnc(COc2ccc(Br)cc2)n1-c1ccccc1 | 0.65 | -0.26
112 | O=C(Nc1nc(-c2ccccc2)cs1)c1ccco1 | 0.58 | -4.14
113 | CCOc1ccc(NC(=O)c2cc3cc4ccc(C)cc4nc3o2)cc1 | 0.85 | 1.46
114 | CC(=O)c1c(C)oc2ccc(NS(=O)(=O)c3ccc(C)cc3)cc12 | 0.34 | -0.73
115 | COc1ccc2c(=O)c3c(=O)n(CCc4ccccc4)c(C(C)C)nc3oc2c1 | 0.92 | -0.32
116 | Cc1cc(=O)oc(C)c1C(=O)NCCCN1CCN(c2ccc(F)cc2)CC1 | 0.76 | 2.62
117 | CC1(C)CC(=O)c2cc(O)ccc2O1 | 0.96 | 1.47
118 | CC(=O)N1CCN(CC(=O)Nc2c(Cl)cccc2Cl)CC1 | 2.53 | -0.01
